# Screening results deposited in PubChem by National Center for Advancing Translational Sciences (NCATS).
# Rango-impB inh – Rango-importin beta binding inhibition; Q14974; AID 540263; actives 0.031% (n = 340,000); Rango CFP/YFP FRET sensor + importin beta, 45 min; Potency, µM (titrated, usually from 92.2 µM), for inactives: at the top dose inhibition of complex formation; active = rising FRET ratio curve, often small or poorly fitted; inconclusive = mostly compound fluorescence or quenching in the first reads; inactive = flat curves in all reads;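 further: potency means the concentration at half of the fitted maximal effect; 0% = DMSO wells and 100% = buffer wells lacking importin beta; nearly all actives have a fitted effect of over 15% in size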
#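 FRET biosensor Rango (snurportin 1 IBB between N-terminal EYFP and C-terminal Cerulean), 50 nM in PBS/1 mM DTT/0.02% Tween-20/0.1% BSA, preincubated 5 min RT with compound; 0.125 microM importin beta added, 45 min RT, CFP/YFP FRET ratio read.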
# miR-21 reporter – raises the signal of a miR-21 reporter | HeLa miR-21 FLuc reporter, luciferase, 48 h | Potency, µM (doses to about 38.3 µM), inactives show at the top dose reporter change, positive = more light | 340,000 tested, under 10 active; active = well fitted rising curve with a large enough effect; inconclusive = small, poorly fitted or top-dose-only effect; inactive = no such curve, though single readings can be large or run the other way;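 further: % of control where 0% means no effect; miR-21 action dims this reporter so a rising signal means less miR-21 action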
#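 HeLa cells endogenously expressing miR-21, stably carrying CMV-driven firefly luciferase with a downstream miR-21 binding site, 2000 cells/well. Titrations up to approximately 40 uM, 48 hours; luciferase luminescence read.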
# Rango dissoc inh – prevents RanGTP from dissociating the Rango-importin beta complex | O95149+P62826 | Biochemical FRET Rango-importin beta, RanGTP-induced dissociation | Potency, µM (top dose mostly 46.1 µM), for inactives: at the top dose activity change, negative = inhibition | actives 0.071% (n = 340,000); active means falling FRET ratio curve, often poorly fitted, with flat reads before Ran was added; inconclusive means other falling curves, or compound fluorescence or quenching; inactive means flat or rising ratio curve;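 further: potency means the concentration at half of the fitted maximal effect; % of control where 0% means no effect; nearly all actives have a fitted effect of over 45% in size; -100% = wells without RanGTP and RCC1; the record marks most hits as doubtful in a second field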
#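 Rango (0.1 uM)–importin beta (0.25 uM) complex; RanGTP-RCC1 trigger; 45 min RT; CFP/YFP FRET read.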
# GLA inh pH 4.5 – alpha-galactosidase A (human) inhibition, pH 4.5; AID 1467; P06280; purified enzyme, 4-MU-alpha-Gal fluorescence, pH 4.5; 230,000 tested, under 10 active; activity change, negative = inhibition, % at 105 µM; inconclusive = small, poorly fitted or top-dose-only inhibition, or a rising curve; inactive = flat fitted curve, though single readings scatter; no compound was filed as active;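 further: 0% = full activity with enzyme and -100% = basal without enzyme; dose as in the result columns while the protocol names 77 µM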
# Target sequence (P06280 whole entry, looked up): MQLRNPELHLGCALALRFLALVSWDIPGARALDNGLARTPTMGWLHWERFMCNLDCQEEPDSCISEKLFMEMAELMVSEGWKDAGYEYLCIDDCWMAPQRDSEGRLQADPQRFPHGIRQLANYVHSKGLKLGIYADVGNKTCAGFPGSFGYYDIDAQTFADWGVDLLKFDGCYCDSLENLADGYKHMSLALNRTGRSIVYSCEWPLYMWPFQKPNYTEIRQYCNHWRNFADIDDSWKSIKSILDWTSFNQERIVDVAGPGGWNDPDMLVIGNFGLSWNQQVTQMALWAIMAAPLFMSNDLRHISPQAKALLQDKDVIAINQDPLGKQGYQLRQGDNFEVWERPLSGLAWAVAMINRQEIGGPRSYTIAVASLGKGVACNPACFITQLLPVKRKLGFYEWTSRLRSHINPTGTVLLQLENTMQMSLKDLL
# * marks the source's active call; other numbers are inactive results; u = inconclusive; x = no result given; & = joins results of further samples. Some of the compounds tested; the hit share may differ from the screen's.
# The first 2 records, to show the layout:
SMILES,Rango-impB inh,miR-21 reporter,Rango dissoc inh,GLA inh pH 4.5
CC1(C)C(=O)NCCN1C(=O)CSc1nccc(-c2ccc(Br)cc2)n1,1.6%,-6%,2%,2
COc1cccc(NC(=O)C2CCCN(c3ncnc4c3nc3n4CCCCC3)C2)c1 (configuration not stated),0.0%,8%,9%,x

# The whole of this part, from the first entry:
SMILES,Rango-impB inh,miR-21 reporter,Rango dissoc inh,GLA inh pH 4.5
CC1(C)C(=O)NCCN1C(=O)CSc1nccc(-c2ccc(Br)cc2)n1,1.6%,-6%,2%,2
COc1cccc(NC(=O)C2CCCN(c3ncnc4c3nc3n4CCCCC3)C2)c1 (configuration not stated),0.0%,8%,9%,x
O=C(CCc1nc2ccccc2c(=O)[nH]1)OCC(=O)c1cccc(Cl)c1,-3.1%,-2%,-3%,14
CCCCCCNC(=O)Cc1ccc(Br)cc1,-1.3%,-18%,-8%,-13
COc1ccc(/C=N/NS(=O)(=O)c2ccc(F)cc2)cc1COc1cc(F)ccc1[N+](=O)[O-],-1.7%,0%,0%,-6
Cc1ccc2cc(C3CC(c4ccco4)=NN3S(=O)(=O)c3ccccc3)c(Cl)nc2c1 (configuration not stated),u,8%,1%,-6
CCCCN(CCCC)CCNC(=O)CN1C(=O)CSc2ccc(S(=O)(=O)N3CCCCC3)cc21,-2.2%,-3%&-4%,-14%,x
CN1CCN(c2ccc(C(=O)c3ccc(F)cc3)cc2)CC1,-0.7%,-37%,-11%,-5
O=C(C1=C[C@@H]2[C@H]3C(=O)N(c4ccc(Cl)cc4)C(=O)[C@H]3[C@@H](C(=O)c3ccc(Cl)cc3)N2C=C1)c1ccccc1,u,-1%,-21%,-11
O=S(=O)(NCCOC12CC3CC(CC(C3)C1)C2)c1cccc2nsnc12,-0.9%,0%,1%,2
Cc1cc(C)c(C)c(S(=O)(=O)N2CCN(C(=O)c3ccc4c(=O)n5c(nc4c3)CCC5)CC2)c1C,2.0%,x,6%,x
COCCN1C(=O)c2ccc(C(=O)Nc3nccs3)cc2C1=O,-3.9%,-3%,4%,7
O=C(c1ccc(S(=O)(=O)NCc2ccco2)cc1)N1CCN(Cc2ccccc2)CC1,0.3%,3%,1%,4
CC(=O)N1CCN(Cc2nc(-c3cccc(Cl)c3)no2)CC1,3.9%,-17%,2%,-28
COc1ccc(C2/C(=C(\O)c3ccc(OC)c(Cl)c3)C(=O)C(=O)N2CCN(C)C)cc1 (configuration not stated),u,-3%,-7%,10
CC(C)OCCCN(C)C1CCN(S(=O)(=O)c2ccc(-c3ccc(=O)[nH]n3)s2)CC1,-2.3%,-7%,6%,x
N#Cc1ccccc1OCCn1cncn1,-2.0%,-8%,33%,x
Cn1cc(C(=O)C(=O)N2CCCc3ccccc32)c2ccccc21,7.1%,17%,-1%,-5
O=S(=O)(c1ccc(Cl)nc1)N1CCC(Cc2ccccc2)CC1,-1.4%,x,0%,x
C[C@@H]1NC(=O)[C@H](CCC(N)=O)NC(=O)c2cc([N+](=O)[O-])cc(I)c2NCCC[C@@H](C(N)=O)NC1=O,4.1%,-10%,-4%,0
OC(c1ccccn1)c1c[nH]c2ccccc12 (configuration not stated),-0.3%,-7%,-8%,-4
CCCCN(C(=O)c1ccc(Cl)c([N+](=O)[O-])c1)c1c(N)n(CCC)c(=O)[nH]c1=O,-1.6%,8%,18%,7
C=CCn1c(SCC(C)=O)nc2scc(-c3ccc(C)o3)c2c1=O,0.7%,-28%,1%,x
COC(=O)c1ccc(C(=O)N2CCCC(Nc3ccc(C(C)C)cc3)C2)cc1 (configuration not stated),0.8%,-1%,-5%,x
CCn1c(COc2ccc(=O)n(-c3ccccc3)n2)nnc1SCc1ccc(C)cc1,3.2%,0%,-9%,-4
# Next part.
SMILES,Rango-impB inh,miR-21 reporter,Rango dissoc inh,GLA inh pH 4.5
COc1ccc(N2CC(NC(=O)N(C)CCC#N)CC2=O)cc1 (configuration not stated),4.6%,-2%,-6%,-1
CC(Oc1ccc2c(c1)oc(=O)c1ccccc12)C(=O)NCC1CCC(C(=O)O)CC1 (configuration not stated),-2.6%,-13%,4%,x
Cn1c(SCc2n[nH]c(=S)n2-c2ccccc2)nnc1-c1ccccc1,-4.4%,0%,-9%,1
CC(C)N1CCC(N2CCN(Cc3ccc(-c4ccc(Cl)cc4)o3)CC2CCO)CC1 (configuration not stated),-0.7%,-11%,10%,0
Cc1ccc2oc(C(=O)NCCC3CCCCO3)c(C)c2c1 (configuration not stated),-1.8%,-29%,-8%,x
Nc1oc2ccccc2c(=O)c1C=O,3.4%,1%,17%,1
CCOc1nc(C)cc(C)c1S(=O)(=O)c1ccc(Cl)cc1,-3.1%,-3%,-15%,1
COc1ccc(OCCNC(=O)/C=C/c2ccc([N+](=O)[O-])cc2)cc1,0.3%,-3%,31%,-2
CC(C)C[C@H](NC(=O)OC(C)(C)C)c1nnc(SCc2cccc(F)c2)o1,-0.3%,6%,-2%,-3
COC(=O)c1sc2nc(-c3ccccc3)c3c(c2c1N)CCCC3,0.3%,0%,-16%,-7
CC1Cc2ccccc2N1S(=O)(=O)c1cccc(C(=O)NNC(=O)c2ccccc2F)c1 (configuration not stated),-1.1%,x,-1%,x
O=C1[C@H]2[C@@H](c3ccc(F)cc3)N3C(=O)N(c4cccc(Br)c4)C(=O)[C@@]3(Cc3ccccc3)[C@H]2C(=O)N1C1CCCCC1,1.9%,x,-10%,x
CC(=O)c1c(C)[nH]c(C(=O)N2CCc3ccccc32)c1C,-0.6%,-11%,-8%,-14
C/C(Cn1nc([N+](=O)[O-])cc1C)=N\NC(=O)COc1ccc(Cl)cc1Cl,-1.0%,-6%,2%,4
CCOC(=O)Cn1c(=O)oc2cc(S(=O)(=O)N3CCCc4ccccc43)ccc21,-2.6%,1%,7%,-1
CCCn1c(SCC(=O)Nc2c(C)cccc2C)nnc1C(C)C,-1.4%,-5%,0%,11
COC(=O)c1ccc(Oc2nc(NC(C)(C)C)nc(N3CCOCC3)n2)cc1,x,3%,x,-9
COc1cc(OC)cc(C(=O)NNC(=O)CCc2ccccc2)c1,0.0%,-5%,u,3
COC(=O)c1cccnc1NC(=S)NC(C)C,-1.4%,-5%,1%,-2
O=[N+]([O-])c1ccc(C(O)CN2CCN(Cc3ccccc3)CC2)cc1 (configuration not stated),-2.1%,-3%,9%,x
CNC(=O)c1[nH]cnc1C(=O)Nc1ccc(Cl)cc1,7.7%,3%,15%,7
CN(C)CCCNC(=O)C[C@H]1C[C@H](C(=O)N2CCCCC2)[C@@]2(CCc3ccccc3)c3[nH]c4cc(-c5ccco5)ccc4c3CCN2C1=O,1.1%,x,-12%,x
CCn1c(SCC(=O)N2CCCCC2)nc2c(c1=O)SC(C)C2 (configuration not stated),-1.2%,-3%,2%,3
COc1cccc(C(=O)COc2ccc3c(C)c(Cc4ccccc4)c(=O)oc3c2)c1,u,-4%,4%,-8
CCn1cc(C(=O)Nn2cnnc2)c(=O)c2ccc(C)nc21,-0.2%,-2%,3%,u

# An excerpt from above in order of the Rango-impB inh value, high to low.
SMILES,Rango-impB inh,miR-21 reporter,Rango dissoc inh,GLA inh pH 4.5
Cc1cc(C)c(C)c(S(=O)(=O)N2CCN(C(=O)c3ccc4c(=O)n5c(nc4c3)CCC5)CC2)c1C,2.0%,x,6%,x
CN(C)CCCNC(=O)C[C@H]1C[C@H](C(=O)N2CCCCC2)[C@@]2(CCc3ccccc3)c3[nH]c4cc(-c5ccco5)ccc4c3CCN2C1=O,1.1%,x,-12%,x
COc1cc(OC)cc(C(=O)NNC(=O)CCc2ccccc2)c1,0.0%,-5%,u,3
O=S(=O)(c1ccc(Cl)nc1)N1CCC(Cc2ccccc2)CC1,-1.4%,x,0%,x
CC(C)OCCCN(C)C1CCN(S(=O)(=O)c2ccc(-c3ccc(=O)[nH]n3)s2)CC1,-2.3%,-7%,6%,x

# Next section.
SMILES,Rango-impB inh,miR-21 reporter,Rango dissoc inh,GLA inh pH 4.5
Cc1noc(C)c1CSc1nnnn1-c1ccc(Cl)cc1,-1.2%,-1%,u,5
NC(=O)N/N=C/c1cc(Br)ccc1OCC(=O)NCc1ccccc1,-2.7%,4%,5%,-1
COc1ccc(-n2nc(C(=O)NCCCN3CCCC3=O)c3c4ccccc4n(C)c3c2=O)cc1Cl,0.5%,0%,5%,x
C=CC[n+]1c(-c2ccc(C)cc2)csc1Nc1ccc(NC(C)=O)cc1,5.3%,u,-12%,3
Cc1cc(Br)cn2ccnc12,-1.7%,-6%,-5%,-17
Cc1nc(SCc2nc3ccccc3[nH]2)c2oc3ccc(Br)cc3c2n1,3.8%,x,8%,x
OCCC#Cc1ccc(CN2CCN(CCc3ccccc3)C(CCO)C2)cc1 (configuration not stated),0.8%,-5%,11%,x
Cc1ccc(CN2C(=O)CCC2C(=O)NCCCN2CCOCC2)cc1 (configuration not stated),0.1%,1%,3%,13
CC(=O)C12CCCCC1CC1[C@@H]3CC(C)C4=CC(=O)CC[C@]4(C)C3CC[C@@]12C (some centres not stated),1.3%,-5%,0%,x
Cc1ccc2[nH]c(C(=O)N3CCOCC3)cc2c1,0.7%,-18%,-7%,x
CC(C)(C)[C@H]1C=C(C(=O)NC2CC2)O[C@@H](OCc2ccc(CO)cc2)C1,0.1%,-1%,-6%,-7
CCCSc1nc2c(cnn2-c2ccc(F)cc2)c(=O)[nH]1,2.2%,-6%,14%,2
CC1CC(Nc2ccccc2)c2ccccc2N1C(=O)c1ccco1 (configuration not stated),-1.1%,20%,38%,-4
c1ccc(N/N=C(\Cc2nc3ccccc3[nH]2)c2ccccc2)cc1,-3.7%,-57%,4%,-5
O=C(CN1CCOCC1)Nc1cc(Cl)ccc1Cl,u,-11%,3%,1
Cc1cccc(-n2c(CNC(=O)c3ccc(S(=O)(=O)N4CCCC4)cc3)n[nH]c2=S)c1,-0.5%,-2%,-8%,10
CC(C)c1ccc(S(=O)(=O)NC2CCS(=O)(=O)C2)cc1 (configuration not stated),8.3%,x,-2%,x
COc1ccc(-n2ncc3c(NCC4CCCO4)ncnc32)cc1 (configuration not stated),-5.8%,-28%,-11%,-8
Cn1c(Cc2ccccc2)nnc1SCC(=O)NC1CC1,2.7%,0%,0%,x
CCOc1ccccc1N1CC(C(=O)Nc2ccccc2N2CCOCC2)CC1=O (configuration not stated),-0.8%,-4%,0%,-2
Cc1cc(C)nc(SCC(=O)N2CCC(C(N)=O)CC2)n1,2.2%,-4%,-8%,-1
COc1c2c(cc3ccc(=O)oc13)CCO2,-0.7%,3%,2%,x
CCC(=O)Oc1ccc(C(=O)Nc2ccc([N+](=O)[O-])cc2)cc1,0.1%,-45%,-6%,x
Nc1sc2c(c1C(=O)NC1CCS(=O)(=O)C1)CCCC2 (configuration not stated),0.5%,-2%,-7%,0
CC(C)N(Cc1nc(-c2ccccc2)no1)S(=O)(=O)c1ccccc1,2.8%,14%,17%,-4
# (continued)
SMILES,Rango-impB inh,miR-21 reporter,Rango dissoc inh,GLA inh pH 4.5
CCC(C(=O)NNC(=O)c1cnccn1)c1ccccc1 (configuration not stated),1.1%,4%,-3%,2
C=CCc1c(C)nc(C)nc1N/N=C/c1ccc([N+](=O)[O-])cc1,7.2%,10%,1%,-9
O=c1cc(Nc2ccc3c(c2)OCCO3)[nH]c(=O)n1-c1ccc(Cl)cc1,-2.5%,17%,-29%,7
CCCN1CC=C2C(C#N)=C(N)C(C#N)(C#N)C(c3cc(OC)ccc3OC)C2C1 (configuration not stated),u,0%,u,3
CC(=O)c1ccc(N(CC(=O)NC2CCCC2)C(=O)c2csnn2)cc1,-0.2%,-16%,21%,x
Cc1cc(=O)[nH]c(SCC(=O)NC(c2ccccc2)c2ccccc2)n1,0.4%,-6%,11%,-25
O=C(Nc1cccc2ncccc12)c1ccc(F)cc1,2.3%,-9%,2%,-5
Cc1cccc(/C=N/n2c(C)nc3ccccc3c2=O)c1,0.1%,-30%,6%,x
O=C(NNC(=S)NC(=O)c1ccccc1)c1cccnc1,0.1%,-9%,-2%,x
CCOc1ccc(NC(=O)Nc2c(C)n(C)n(-c3ccccc3)c2=O)cc1,0.2%,6%&2%,-10%,x
CCNc1nc(NCC)nc(C(=O)Nc2ccccc2)n1,-2.8%,-15%,14%,-2
CCN(c1ccc(OC)cc1)S(=O)(=O)c1ccc2c(c1)CC(C)N2C(=O)C1CC1 (configuration not stated),-2.1%,-3%,0%,x
C/C=C(\C)CN1CCN(c2cccc(C)c2C)CC1,1.5%,-4%,7%,-2
